Sa ugtP lethal = growth inhibition of ugtP-null S. aureus, primary screen, RN4220 ugtP deletion, OD600. 16 h; some inactives read as strong as hits. 330,000 tested, 0.54% active. growth inhibition, % (no concentration beside the values);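 active means z-score under -3 and OD600 up to 0.15 on both plates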;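 further: plate controls were untreated wells for no effect and antibiotic for full effect; wells of about 80 µL received 100 nL stock; the first replicate is given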
Mtb hypoxia rep = PubChem AID 1159583; M. tuberculosis hypoxia-regulated fluorescent reporter, fluorescence; fluorescence inhibition, % (test concentration not listed); 300,000 tested, 0.1% active;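 active means 35 to 45% if threefold the growth effect, above 45% if 1.5-fold the growth effect; inactive means the rest, general growth blockers included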;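 further: wells of about 50 µL received 100 nL stock; 0% = vehicle wells and 100% = reference inhibitor wells; whole bacteria with a GFP reporter of the hypoxia response; strong numbers were not always called active; many hits fall short of the cut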
RN4220 kill = growth inhibition of S. aureus RN4220, primary screen, OD600; 330,000 tested, 0.33% active; AID 1259311, 2017; 16 h; inhibition, % (concentration not given with the values);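 active means z-score of -3 or lower and OD600 up to 0.18 on both plates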;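 further: plate controls were untreated cells for no effect and reference antibiotic for full effect; stock transfer was 100 nL into about 80 µL; one replicate is shown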
BJeLR viability = MLPCN primary cell-based screen for lethality selective to Ras in HRASV12 cells; BJeLR (HRASV12) viability, CellTiter-Glo ATP luminescence, 48 h; reference of the scale not given here; inhibition, % (no concentration beside the values); 300,000 tested, 0.17% active; AID 1554, 2009;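 active means replicate mean above 50%; inconclusive means above 50% but judged a plate artefact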;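 further: 50 nL library stock added to about 25 µL; numbers are from one replicate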
Autofluor counter = flagged as autofluorescent in microsphere protease counterscreen; fluorescence intensity (no concentration beside the values); 360,000 tested, 3.1% active; compound autofluorescence counterscreen, microsphere flow cytometry; hits give high values;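 active means at least 3 SD above the mean of all compounds, about 16000 in these data; inconclusive means too few beads counted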;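 further: 100 nL of 1 mM stock went into each well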
PrP 5UTR inh = inhibition of PrP 5' UTR reporter expression | cell-based PrP 5' UTR mRNA reporter, plate reader | inhibition, % (concentration not given with the values) | 340,000 tested, 0.35% active;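 active means every replicate at 50% or more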;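 further: 0 = median of the neutral control wells; tested in H4 reporter cells; numbers are from one replicate; inactives centre near -14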
Mtb hypoxia rep growth = further read-out of Mtb hypoxia rep, marked with its call; growth inhibition, %; measured here: M. tuberculosis growth (absorbance);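 0% = vehicle and 100% = reference antibiotic; read after six days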
Starred values were filed as active, the others as inactive; ? = inconclusive; . = not tested or not shown.

The opening seven records as a preview:
SMILES	Sa ugtP lethal	Mtb hypoxia rep	Mtb hypoxia rep growth	RN4220 kill	BJeLR viability	Autofluor counter	PrP 5UTR inh
O=C(Nc1ccc(F)cc1F)c1ccc(COc2c(F)c(F)cc(F)c2F)o1	-2	-4	8	-1.5	2	12595	12
CC(=O)NN=c1sc2ccccc2n1C	1	0	2	-2.7	.	.	.
CC1=C(C#N)C(c2cccnc2)C2=C(N1)c1ccccc1C2=O (centres undefined)	12	-1	9	0.8	-4	4290	-17
COc1ccc(C(=O)Nc2ccc(S(=O)(=O)N3CCCCC3C)cc2)c(OC)c1OC (centres undefined)	21	-7	-5	-1.3	-14	8297	-25
Cc1cc(=O)oc2c1c(C)nn2-c1ccc(Cl)cc1	0	0	1	1.5	0	4480	-19
COc1ccc(C(=O)Nc2ccccc2)cc1S(=O)(=O)NCc1ccco1	5	1	-15	1.2	-2	3968	-24
O=C(Nc1ccc(Cl)cc1)C(c1ccccc1)N1CCOCC1 (centres undefined)	-1	4	-5	-3.6	-3	2551	-16

The list itself, previewed entries included:
SMILES	Sa ugtP lethal	Mtb hypoxia rep	Mtb hypoxia rep growth	RN4220 kill	BJeLR viability	Autofluor counter	PrP 5UTR inh
O=C(Nc1ccc(F)cc1F)c1ccc(COc2c(F)c(F)cc(F)c2F)o1	-2	-4	8	-1.5	2	12595	12
CC(=O)NN=c1sc2ccccc2n1C	1	0	2	-2.7	.	.	.
CC1=C(C#N)C(c2cccnc2)C2=C(N1)c1ccccc1C2=O (centres undefined)	12	-1	9	0.8	-4	4290	-17
COc1ccc(C(=O)Nc2ccc(S(=O)(=O)N3CCCCC3C)cc2)c(OC)c1OC (centres undefined)	21	-7	-5	-1.3	-14	8297	-25
Cc1cc(=O)oc2c1c(C)nn2-c1ccc(Cl)cc1	0	0	1	1.5	0	4480	-19
COc1ccc(C(=O)Nc2ccccc2)cc1S(=O)(=O)NCc1ccco1	5	1	-15	1.2	-2	3968	-24
O=C(Nc1ccc(Cl)cc1)C(c1ccccc1)N1CCOCC1 (centres undefined)	-1	4	-5	-3.6	-3	2551	-16
COC(=O)C1=C(C)OC(N)=C(C#N)C1c1cccnc1 (centres undefined)	-5	.	.	-0.2	5	2863	-5
COc1cccc(C(=O)Nc2ccc3c(c2)C(=O)N(CC2CCCO2)C3=O)c1 (centres undefined)	-4	0	4	0.3	-1	5410	-14
Cc1cc(C(=O)NN=Cc2ccc(-c3cccc(Cl)c3Cl)o2)n[nH]1	-12	-7	-2	2.3	.	.	.
CC(=O)Nc1cccc(NC(=O)CCNC(=O)c2ccccc2)c1	12	0	-6	2.7	0	3047	-1
C=CCOC(=O)Nc1c(C(=O)OC)[nH]c2ccccc12	-3	.	.	3.2	.	4733	-8
CCOC(=O)C1(CCCc2ccccc2)CCN(C(=O)CCc2cnn(C)c2)CC1	3	11	9	5.3	-1	2122	-12
Cc1cc(C)n2ncc(C(=O)NC3CCCCC3)c2n1	-6	5	1	-5.2	-6	2455	-9
Cc1ccc(CONC(=O)c2ccc(OC(F)F)cc2)cc1	4	0	4	8.6	9	3193	-31
Cc1nn(-c2ccccc2)c(C)c1C(=O)OCc1ccc(C#N)cc1	1	9	-1	-2.2	-3	4362	6
CSc1ccc(CCNS(=O)(=O)c2csc(C(N)=O)c2)cc1	2	11	3	0.5	-4	5057	-13
Cc1ccc(N2CCN(S(=O)(=O)c3c(C)noc3C)CC2C)cc1 (centres undefined)	4	11	6	1.8	-1	5031	-12
Cc1cccc(C)c1NC(=O)CSc1nc(-c2ccco2)cc(C(F)(F)F)n1	4	7	4	1.3	1	8806	-25
Cc1cccc(/C=N\NC(=O)c2sccc2-n2cccc2)c1	.	.	.	.	0	2150	-43
CCOc1c(C=C(C#N)C#N)c2ccccc2n1CC	-9	6	16	1.9	-6	2197	41
CCCCN=C(N)/C(C(=O)OCC)=C(\O)c1ccc(OC)cc1	7	.	.	5.9	-10	3383	-9
CCCCN(C)CCn1c(=S)[nH]c2cc(OCC)c(OCC)cc2c1=O	3	11	-3	7.6	0	3281	-20
CCC(=O)NC(Cc1ccccc1)c1nc2ccccc2[nH]1 (centres undefined)	6	-11	2	4.8	3	3151	-33
CCc1cc([N+](=O)[O-])cc(CC)c1N	-5	.	.	1.2	6	2664	-9
O=C(/C=C/c1ccccc1)N(Cc1cccs1)C1CCS(=O)(=O)C1 (centres undefined)	3	4	5	2.9	-2	.	-10
COC(=O)C1=C(C)Nc2sc(C(N)=O)c(N)c2C1c1ccncc1 (centres undefined)	18	6	1	0.9	8	1985	-7
COc1ccc(S(=O)(=O)Cc2ccc(C(=O)NCCCN(C)c3ccccc3)o2)cc1	-8	-7	-5	-0.9	3	22186*	-11
COC(=O)C1=C(c2ccc(Cl)c(C(F)(F)F)c2)CC2CCC1N2C(=O)NCCNC(C)=O (centres undefined)	5	6	0	5.8	.	.	.
Cc1ccc(NC(=O)C2=CCN(S(=O)(=O)c3ccc(F)cc3)CC2)c(C)c1	10	.	.	1.1	7	5272	2
CCOC(CCn1c(SCC(=O)Nc2cc(C)on2)nc2ccccc2c1=O)OCC	-1	4	-3	1.2	-3	2129	3
CCOCCCNS(=O)(=O)Cc1ccccc1	5	0	2	3.7	6	18819*	-21
COc1ccccc1CNN	1	-4	5	2.1	-12	4031	-26
O=C1OCCC1Sc1nnc(-c2ccc(Cl)cc2)n1Cc1ccccc1 (centres undefined)	-3	0	-4	4.6	3	2720	-8
O=C(O)CCC(=O)Nc1ccc(C(=O)OC2CCCCC2)cc1	14	-5	-2	6.3	0	6712	-11
Cc1cc2cc(CCNC(=O)CCc3ccccc3)c(=O)[nH]c2cc1C	11	8	1	5.5	-1	5650	-12
Cc1cc(C(C)(C)C)oc1C(=O)N(CC(=O)NC1CCCC1)c1cccc(C(F)(F)F)c1	-22	5	3	-11	-16	6018	-10
Cc1ccc(S(=O)(=O)N2C[C@@H]3CCCC[C@@H]3[C@@H](C)[C@H]2c2cn(Cc3ccccc3)c3ccccc23)cc1	2	-2	-12	-1.9	.	3388	-35
COc1ccc(OC)c(C(=O)COC(=O)c2cccnc2Cl)c1	4	14	2	-0.1	4	5179	-27
COc1cc(-c2nc(-c3ccccc3)c(-c3ccc(F)cc3)[nH]2)cc2c1OCO2	-8	15	1	2.5	-1	2373	-13
COc1cc(OC)cc(C(=O)Nc2nnc(SCC(=O)NCc3ccco3)s2)c1	3	11	-2	-1.3	-4	6378	-23
COc1ccc(S(=O)(=O)Nc2ccc(Oc3ncccn3)c(Cl)c2)cc1	4	18	5	3.0	8	4034	-17
COc1ccc(NC(=O)C2CCC(C(C)(C)C)CC2)cc1S(=O)(=O)N1CCCCC1 (centres undefined)	.	.	.	.	-6	2446	14
CCOC(=O)c1c(NC(=O)CSc2nnnn2C)sc(C(=O)N(C)C)c1C	3	18	-1	1.4	-6	3561	-8
Cc1ccc(OCc2cc(C(=O)N3CCC(Oc4cccnc4)CC3)no2)cc1C	1	-15	-6	6.2	10	5684	-20
CCOC(=O)COc1cc2c3c(c(=O)oc2cc1C)CCCC3	-3	8	11	4.6	-5	2638	-17
CC1=NN(c2ccc(C(=O)O)cc2)C(=O)CC1	1	-4	9	-3.5	7	3821	7
Cc1cccc(-n2cc(CNCCc3nc(C)cc(C)n3)c(-c3cccc(F)c3)n2)c1	-2	11	0	-9.1	2	5762	-4
CC[C@H](C)[C@H](NC(N)=O)C(=O)Nc1ccc(OC)c(Cl)c1	-1	13	14	5.8	2	3509	-19
COc1ccccc1CNC(=O)CCNS(=O)(=O)c1ccc2[nH]c(=O)oc2c1	-3	-8	-2	-2.9	11	5990	-17
COc1ccc2ccccc2c1C=NNC(=O)c1ccc(C)nc1	8	8	4	3.9	.	.	.
Cc1nn(Cc2ccc(Cl)cc2Cl)c(C)c1NC(=O)CCl	-8	.	.	8.3	-6	19112*	-3
O=C(/C(=C(\[O-])c1ccccc1)[n+]1ccc2ccccc2c1)c1ccccc1	.	.	.	.	1	3639	-44
COc1ccccc1N1CCN(C(=O)c2ccc(COc3cccc4c3OC(C)(C)C4)cc2)CC1	-2	6	7	5.5	-9	5704	-32
O=C1CN(CC(=O)NC2CCCc3ccccc32)CCN1 (centres undefined)	4	2	-1	1.2	-13	3795	-4
COc1cc(CNC2CCCC2)cc(Cl)c1OCc1ccc(F)cc1	-28	19	8	-26	12	?	-21
CN(C)c1cccc(C(=O)OCC(=O)NCC2CCCO2)c1 (centres undefined)	3	.	.	0.4	-3	5770	-28
C[n+]1ccc(C=NNc2nc(Cl)c(C#N)c(Cl)c2Cl)cc1	8	21	4	1.0	.	.	.
CCC12CN3CCN(CC(C3)C1=NNC(=O)c1ccc(C(C)(C)C)cc1)C2	11	3	7	3.4	.	.	.
O=C(CSc1cccc(C(F)(F)F)c1)NCc1ccccc1	2	11	5	-0.8	-1	2554	-1

Next results follow.
SMILES	Sa ugtP lethal	Mtb hypoxia rep	Mtb hypoxia rep growth	RN4220 kill	BJeLR viability	Autofluor counter	PrP 5UTR inh
COc1cc(-c2nc3c[n+](CC(=O)c4ccccc4)ccc3n2C)cc(OC)c1OC	6	2	-2	3.5	-21	2512	-18
C=Cn1ccnc1P(=S)(c1ccn(C)c1)c1nccn1C=C	-3	3	-1	1.2	1	5567	-11
O=C(NCc1ccc(-n2cccc2)cc1)c1cccc(F)c1	1	12	3	7.4	9	4334	-31
O=S(=O)(c1ccccc1)N1CCN=C1SCc1c(F)cccc1Cl	16	0	8	3.2	5	6221	-11
O=C(Nc1ccc(Br)cc1)c1cccc(S(=O)(=O)Nc2ccccn2)c1	3	1	9	1.2	-3	5356	4
O=C(CN(C(=O)CCC(=O)Nc1nccs1)c1ccc2c(c1)OCCO2)NCc1ccco1	-3	.	.	1.3	4	5165	-21
O=C(CCN1C(=O)/C(=C/c2ccccc2)SC1=S)NCCc1ccc(O)cc1	2	3	0	-1.1	3	5253	-18
CC(C)Nc1oc(-c2cccc3ccccc23)nc1C#N	-9	12	1	-4.4	-6	6691	-53
Cc1ccc(CSCc2nnc(SCC(=O)N3CCN(c4ccccc4)CC3)n2C)cc1	15	10	5	5.2	12	2738	-3
COc1ccc(S(=O)(=O)N2CCC(C(=O)NCc3ccccn3)CC2)cc1Cl	-4	9	0	4.3	12	2902	0
CN(CC(Cc1ccccc1)N(CC(c1ccccc1)N(CCc1ccccc1)N=O)N=O)N=O (centres undefined)	6	17	10	7.9	.	.	.
OC(COCc1cccs1)CN1CCN(c2cccc(Cl)c2)CC1 (centres undefined)	.	.	.	.	8	1993	-22
COc1ccc(S(=O)(=O)Nc2nnc(C)s2)cc1	-9	-9	-2	7.7	0	7615	-24
Cc1ccc(CCNC(=O)c2nnn(-c3cc(C)cc(C)c3)c2N)cc1	0	-4	-4	0.9	-2	3384	7
Cn1c(=O)n(CCCOc2ccc(Cl)cc2)c2ccccc21	-2	.	.	-0.9	-3	2537	-9
Cn1nc([N+](=O)[O-])nc1S(C)(=O)=O	34	11	15	-4.0	-3	4160	-16
O=C(CCNc1ccc(Cc2ccncc2)cc1)c1cccc([N+](=O)[O-])c1	-6	-11	2	3.0	-4	3184	-9
CCOC(=O)C1(CCOc2ccccc2)CCN(Cc2cccn2-c2ncccn2)CC1	1	-4	1	-0.6	-3	5118	-14
Cc1c(Cl)c(C(=O)NNC(=S)Nc2ccc(F)cc2)nn1C	3	5	7	1.3	-4	2286	-41
CCOC(=O)C1(CCCc2ccccc2)CCN(C(=O)Cn2nc(C)nc2C)CC1	6	-4	-4	3.8	19	4736	-17
COc1cc(C(=O)OCC(=O)NC2CCCCCC2)ccc1OCC(C)C	.	.	.	.	-3	?	-12
Cc1ccc(CN2CCN(c3cccc4[nH]ccc34)CC2)cc1	33	0	27	-12	-7	3194	-8
CN(C)c1nc(NCc2ccccc2)nc(N/N=C/c2ccc(Cl)cc2Cl)n1	.	.	.	.	5	4027	-5
CC(=O)c1cccc(OCC(=O)N2CCN(c3ccc(C(F)(F)F)cn3)CC2)c1	2	6	-2	4.4	5	4960	-9
C[C@]12CCC(=O)C[C@@H]1CC[C@@H]1[C@@H]2CC[C@]2(C)C=CC[C@@H]12	.	.	.	.	-14	4337	66*
CCOc1cc(/C=N/NC(=O)CCn2nc(C)cc2C)ccc1O	.	.	.	.	12	5744	-22

Bioassay records deposited in PubChem by several laboratories.

Hits appear at their usual frequency. Share with any hit: about 3.9%.
